Rango-impB inh = qHTS Assay for Inhibitors of Rango (Ran-regulated importin-beta cargo) - Importin beta complex formation; Importin subunit beta-1 (Homo sapiens), Q14974; Rango CFP/YFP FRET sensor + importin beta, 45 min; Potency, µM (doses to about 92.2 µM), for the others: at the top dose inhibition of complex formation; actives 0.031% (n = 340,000); active = rising FRET ratio curve, often small or poorly fitted; inconclusive = mostly compound fluorescence or quenching in the first reads; inactive = flat curves in all reads;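 also: potency is read from the fitted curve at half-maximal effect; 0% = DMSO wells and 100% = buffer wells lacking importin beta; nearly all actives have a fitted effect of over 15% in size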
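FRET biosensor Rango (snurportin 1 IBB between N-terminal EYFP and C-terminal Cerulean), 50 nM in PBS/1 mM DTT/0.02% Tween-20/0.1% BSA, preincubated 5 min RT with compound; 0.125 microM importin beta added, 45 min RT, CFP/YFP FRET ratio read.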
miR-21 reporter = qHTS Assay for Modulators of miRNAs and/orActivators of miR-21 | Potency, µM (series often up to 38.3 µM), for the others: top-dose reporter change, positive = more light | 340,000 tested, under 10 active | AID 2288, 2010 | HeLa miR-21 FLuc reporter, luciferase, 48 h; active = well fitted rising curve with a large enough effect; inconclusive = small, poorly fitted or top-dose-only effect; inactive = no such curve, though single readings can be large or run the other way;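 also: % of control where 0% means no effect; miR-21 action dims this reporter so a rising signal means less miR-21 action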
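HeLa cells endogenously expressing miR-21, stably carrying CMV-driven firefly luciferase with a downstream miR-21 binding site, 2000 cells/well. Titrations up to approximately 40 uM, 48 hours; luciferase luminescence read.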
GLA inh pH 4.5 = qHTS Assay for Inhibitors of Human alpha-Galactosidase at pH 4.5. Alpha-galactosidase A (Homo sapiens), P06280. purified enzyme, 4-MU-alpha-Gal fluorescence, pH 4.5. activity change, negative = inhibition, % at 105 µM. 230,000 tested, under 10 active. AID 1467, 2008; inconclusive = small, poorly fitted or top-dose-only inhibition, or a rising curve; inactive = flat fitted curve, though single readings scatter; no compound was filed as active;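 also: 0% = full activity with enzyme and -100% = basal without enzyme; dose as in the result columns while the protocol names 77 µM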
Target sequence (P06280 whole entry, looked up): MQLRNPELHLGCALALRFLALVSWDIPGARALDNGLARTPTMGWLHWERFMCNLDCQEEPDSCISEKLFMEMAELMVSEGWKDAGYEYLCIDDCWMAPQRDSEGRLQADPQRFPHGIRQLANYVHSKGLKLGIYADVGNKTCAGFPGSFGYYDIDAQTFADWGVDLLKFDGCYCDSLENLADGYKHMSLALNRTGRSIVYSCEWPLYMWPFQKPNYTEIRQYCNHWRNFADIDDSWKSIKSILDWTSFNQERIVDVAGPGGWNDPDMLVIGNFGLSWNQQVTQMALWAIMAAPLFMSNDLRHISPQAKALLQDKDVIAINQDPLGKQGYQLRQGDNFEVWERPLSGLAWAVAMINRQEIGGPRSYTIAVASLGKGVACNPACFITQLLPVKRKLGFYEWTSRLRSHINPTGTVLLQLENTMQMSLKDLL
Rango release inh = qHTS Assay for Inhibitors of RanGTP induced Rango (Ran-regulated importin-beta cargo) - Importin beta complex dissociation; Biochemical FRET Rango-importin beta, RanGTP-induced dissociation; Potency, µM (series often up to 46.1 µM), inactives show at the highest dose activity change, negative = inhibition; actives 0.071% (n = 340,000); AID 540253, 2011; active means falling FRET ratio curve, often poorly fitted, with flat reads before Ran was added; inconclusive means other falling curves, or compound fluorescence or quenching; inactive means flat or rising ratio curve;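 also: potency is read from the fitted curve at half-maximal effect; % of control where 0% means no effect; nearly all actives have a fitted effect of over 45% in size; -100% = wells without RanGTP and RCC1; the record marks most hits as doubtful in a second field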
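Rango (0.1 uM)–importin beta (0.25 uM) complex; RanGTP-RCC1 trigger; 45 min RT; CFP/YFP FRET read.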
* marks the source's active call; other numbers are inactive results; ? = inconclusive; · = not tested or not shown; & = joins results of further samples. This is a subset. The share of hits here may be higher or lower than overall.

#	compound	Rango-impB inh	miR-21 reporter	GLA inh pH 4.5	Rango release inh
1	O=C(C1CC1)N1N=C(c2ccc(Cl)cc2)CC1(O)C(F)(F)F (centres undefined)	1.3%	-7%	·	2%
2	O=C(NC1CC2CCC(C1)N2Cc1ccco1)c1ccccc1 (centres undefined)	-1.1%	-3%	1	-4%
3	CCOC(=O)N1CCN(c2ncnc3nc[nH]c23)CC1	0.1%	-16%	2	-10%
4	CC(=O)CSc1ccc(C(=O)O)cn1	2.2%	30%	1	2%
5	CCSc1nnc([C@@H](NC(=O)OC(C)(C)C)C(C)C)o1	1.2%	-1%	2	-3%
6	CN(C)C1=NC[C@H](Cc2ccccc2)N1CC1CCCC1	-3.3%	·	·	5%
7	O=C(CNC(=S)NC(=O)c1ccccc1Br)c1ccccc1	-1.2%	-6%	1	-14%
8	CCOc1ccc(NC(=O)CN(C)CC(=O)Nc2ccccc2SC)cc1OCC	-1.2%	-5%	0	0%
9	CC(c1ccco1)N(C(=O)COc1ccc(Cl)cc1)c1ccccn1 (centres undefined)	0.1%	-44%	-5	?
10	CCCc1nc2c(nnn2Cc2ccccc2Cl)c(=O)[nH]1	0.4%	-3%	2	1%
11	O=C(Cc1nn[nH]n1)NCCC1=CCCCC1	-0.2%	3%	4	8%
12	CC(C)C(NS(=O)(=O)c1ccccc1)C(=O)N1CCN(C(=O)c2ccco2)CC1 (centres undefined)	-1.6%	0%	·	1%
13	Cc1ccccc1NC(=S)NCc1cccs1	0.9%	0%	14	14%
14	CCO[C@@H]1OC(C(=O)NCc2ccccc2)=C[C@H](c2ccc3c(c2)OCO3)[C@H]1CCCO	-0.5%	-3%	-6	14%
15	COCCNC(=O)C(c1ccc(Cl)cc1)N(CCOC)C(=O)CCC(=O)Nc1nccs1 (centres undefined)	0.8%	0%	8	0%
16	CCn1cc(C(=O)NCCC(=O)NCCO)c(=O)c2cc3c(cc21)OCO3	0.4%	3%	·	19%
17	COc1ccc(C(=O)/C=C/c2cn(CN3CCN(C)CC3)c3ccccc23)cc1	?	-47%	-4	?
18	CSc1cccc(CN2CCN(CCC(C)C)C(CCO)C2)c1 (centres undefined)	4.4%	-7%	-6	13%
19	COC(=O)c1ccccc1NC(=S)NC(=O)c1ccc2c(c1)OCO2	1.8%	-9%	·	0%
20	Cc1cc(OC(C)C)nc(NCc2ccccc2)n1	0.3%	-2%	-4	-3%
21	CC1=NOC(=O)/C1=C/c1ccc(O)cc1	0.7%	1%	-14	-22%
22	CN(C)C(=O)c1ccc2c3c(cccc13)CC2	-0.8%	-8%	-9	1%
23	CS(=O)(=O)N(CC(=O)N1CCN(Cc2ccccc2)CC1)C1CCCCC1	-1.5%	-3%	-6	-7%
24	CCOc1ccc(Oc2ccccc2NC(=O)CCNC(C)=O)cc1	-1.4%	0%	5	0%
25	Cc1cccc(NC(=O)CS(=O)(=O)c2cn(C)c3ccccc23)c1	-1.2%	-2%	-5	29%
26	CC(C)CCNC(=O)c1onc(CSc2ccc(F)cc2)c1C(=O)NCCC(C)C	-0.9%	·	·	-2%
27	COc1cc(/C=N/n2c(-c3n[nH]c4c3CCC4)n[nH]c2=S)ccc1O	0.3%	-16%	-3	3%
28	CC(C)[C@H](NC(=O)OCc1ccccc1)C(=O)OCC(=O)NC1CCCCC1	0.5%	-11%	-4	?
29	O=C(COC(=O)c1cc[n+]([O-])cc1)Nc1cccc(F)c1	-2.8%	·	·	-17%
30	Cc1cc(CNCc2cn(C)nc2-c2ccc(Oc3ccccc3)cc2)on1	0.3%	9%	0	-5%

(31) COc1ccc(C(=O)NCCCc2nc3ccccc3n2Cc2ccccc2C)cc1OC
(32) COc1ccccc1NC(=O)C1=C(C)Nc2ncnn2C1c1cccs1 (centres undefined)
(33) COc1ccc(NC(=O)CN2CCc3ccccc3C2)cc1S(=O)(=O)N1CCOCC1
(34) O=C(COC(=O)Cc1ccc(Cl)cc1Cl)Nc1ccc(OC(F)F)cc1
(35) COc1ccc(/C(C)=N\O)cc1OC
(36) O=C(OCC(=O)N1CCc2ccccc2C1)c1ccc(F)cc1Cl
(37) COC(=O)c1cc(OC)cc(O)c1C(=O)c1c(O)cc(C)cc1O
(38) CCc1ccc(C2C(C#N)=C(N)SC(N)=C2C#N)s1
Compound	31	32	33	34	35	36	37	38
Rango-impB inh	1.1%	2.2%	-3.7%	3.6%	2.3%	1.3%	2.2%	?
miR-21 reporter	-10%	-7%	-3%	0%	-5%	·	-4%	-13%
GLA inh pH 4.5	-1	0	3	-18	-4	·	0	10
Rango release inh	-4%	-7%	-1%	0%	-20%	3%	1%	10µM*

Results in sequence from the entries so far.
Rango-impB inh for nos. 31–35 → 1.1%, 2.2%, -3.7%, 3.6%, 2.3%
Rango release inh for nos. 31–35 → -4%, -7%, -1%, 0%, -20%

Additional entries follow:
(39) CC(C)c1ccc(NC(=O)CN2C(=O)NC3(CCCC3)C2=O)cc1
(40) COC(=O)[C@@H]1CC[C@H](C)[C@@H](c2ccc(C)cc2)N1C(=O)c1ccc(/C=N/OC[C@@H](O)[C@H]2O[C@@H]3OC(C)(C)O[C@@H]3[C@H]2O)cc1
(41) COC(=O)CN(c1ccccc1F)S(=O)(=O)c1ccc(C)cc1
(42) Cn1c(C(=O)NCCCN2CCN(c3cccc(Cl)c3)CC2)cc2c(=O)n(C)c3ccccc3c21
(43) CC1(c2ccc(Cl)cc2Cl)NC(=O)N(CC(=O)N2CCN(C(=O)c3ccco3)CC2)C1=O (centres undefined)
(44) Cc1cc(C)c2[nH]c(=O)c(CN(Cc3ccco3)C(=O)c3cccs3)cc2c1
(45) C=CCN(C(=O)c1csnn1)C(C(=O)NC1CCCC1)c1c(F)cccc1Cl (centres undefined)
(46) CC(NC(=O)Nc1ccc(F)cc1F)c1ccncc1 (centres undefined)
Compound	39	40	41	42	43	44	45	46
Rango-impB inh	1.1%	·	-2.0%	-2.5%	-0.5%	·	-0.2%	-2.8%
miR-21 reporter	-12%	0%	1%	7%	·	1%	5%	-7%
GLA inh pH 4.5	·	-29	-2	7	·	-30	·	3
Rango release inh	9%	·	11%	-23%	-3%	·	-1%	1%

(47) Fc1ccccc1-c1n[nH]c(=S)n1CC1CCCO1 (centres undefined)
(48) CC/C(C)=N/Nc1nc2sc3c(c2c(=O)[nH]1)CC(C)(C)OC3
(49) CC1CN(S(=O)(=O)c2ccc(C(=O)NN3CCN(C)CC3)cc2)CC(C)O1 (centres undefined)
(50) Fc1ccc(N2CCN(c3ncnc4nc[nH]c34)CC2)cc1
(51) CN(C)c1ccc(NC(=O)COC(=O)CNC(=O)c2cccs2)cc1
(52) Cc1cc(C)n(C(C)CC(=O)Nc2ccc(-c3ccno3)cc2)n1 (centres undefined)
(53) Cc1ccnc(NC(=O)Cc2c(F)cccc2Cl)c1
(54) CC(C)C(=O)N(Cc1ccc(F)cc1)Cc1nc2ccccc2c(=O)[nH]1
Compound	47	48	49	50	51	52	53	54
Rango-impB inh	-1.3%	2.6%	0.3%	-1.5%	-2.0%	1.5%	0.6%	-0.5%
miR-21 reporter	-1%	-12%	-4%	-45%	·	-5%	-3%	-1%
GLA inh pH 4.5	11	4	-9	-9	·	·	·	7
Rango release inh	-7%	?	4%	-23%	17%	3%	-9%	-2%

(55) COCCNC(=S)Nc1cc(S(=O)(=O)N2CCOCC2)ccc1N1CCCCC1
(56) Cc1ccc(OCc2n[nH]c(=S)n2C2CCCCC2)cc1
(57) c1ccc(-c2noc(CN3CCOCC3)n2)cc1
(58) NC(Cc1ccc(O)cc1)c1cn([C@@H](CCC(=O)O)C(=O)N2CCNCC2)nn1 (some centres undefined)
(59) CCOc1ccc(NS(=O)(=O)c2ccc(C)c(C(N)=O)c2)cc1
(60) CCOC(=O)C1CCN(c2ncnc3nc[nH]c23)CC1
(61) [O-]/[N+](=C/c1ccc(F)cc1)c1ccccc1
(62) Brc1ccc2c(c1)[C@H]1OCC[C@H]1[C@@H](c1cccs1)N2
Compound	55	56	57	58	59	60	61	62
Rango-impB inh	3.8%	-0.7%	-0.7%	?	-8.1%	-4.3%	-4.2%	-0.1%
miR-21 reporter	1%	8%	2%	1%	-1%	-8%	-5%	25%
GLA inh pH 4.5	-19	5	6	6	6	5	9	-15
Rango release inh	2%	-1%	-1%	-1%	?	-1%	-3%	-7%

Two successive records already listed, quoted:
(61) [O-]/[N+](=C/c1ccc(F)cc1)c1ccccc1
(62) Brc1ccc2c(c1)[C@H]1OCC[C@H]1[C@@H](c1cccs1)N2
Compound	61	62
Rango-impB inh	-4.2%	-0.1%
miR-21 reporter	-5%	25%
GLA inh pH 4.5	9	-15
Rango release inh	-3%	-7%

(listing goes on)
(63) COCC(=O)N1CCC(Oc2ccc(C(=O)NC3Cc4ccccc4C3)cc2)CC1
(64) CCOC(=O)C1CCCN(C(=O)CN2C(=O)/C(=C/c3ccc(OC)cc3)Oc3ccccc32)C1 (centres undefined)
(65) Cc1nnc(NC(=O)CSC2=NN3CCCC(=O)N=C3S2)s1
(66) Clc1ccc(N(CC2CO2)CC2CO2)cc1 (centres undefined)
(67) CCC(CC)C(=O)Nc1ccc(-c2cn3cccnc3n2)cc1
(68) CCCCC(=O)Nc1ncc(Br)s1
(69) CCOc1ccc(C(=O)CCC(=O)NC(CC(C)C)C(=O)OC)cc1 (centres undefined)
(70) Cc1ccc(S(=O)(=O)Nc2ncnc3sccc23)cc1C
Compound	63	64	65	66	67	68	69	70
Rango-impB inh	3.2%	?	1.8%	-1.4%	-2.0%	?	-5.0%	0.9%
miR-21 reporter	-9%	-16%	-3%	·	-35%&-34%	-16%	3%	·
GLA inh pH 4.5	·	-1	-3	·	·	0	2	·
Rango release inh	-8%	-13%	-11%	-12%	0%	-5%	-14%	0%

(71) O=C(CCc1nc2ccccc2n1-c1ccccc1)NCCO
(72) O=C(Nc1ccc2c(c1)OCO2)Nc1cnccn1
(73) COc1ccccc1N1CCN(c2ccc([N+](=O)[O-])cc2Cl)CC1
(74) CCN(C(=O)CSC1=Nc2ccccc2C2CC=NN12)C1CCS(=O)(=O)C1 (centres undefined)
(75) CC(C)CCNC(=O)NC(=O)CSc1ccc(S(=O)(=O)N2CCOCC2)cn1
(76) Cc1ccccc1C(=O)NC1CCN(CC(=O)Nc2c(C)cccc2C)CC1
(77) O=C(O)c1ccccc1/C=N/Nc1ccc(S(=O)(=O)Nc2ccc(Cl)cc2)cc1[N+](=O)[O-]
(78) CNC1(c2nnnn2-c2ccccc2C)CCOC(C)(C)C1 (centres undefined)
(79) Nc1c(C(O)(C(F)(F)F)C(F)(F)F)ccc2ccccc12
(80) COc1ccc2c(c1)OC[C@H]1[C@H]2N2C(=O)CN(CCc3c[nH]c4ccccc34)C(=O)[C@@]2(C)[C@H]1c1ccccc1
(81) COc1ccccc1CNC(=O)c1cc(-c2ccccc2)nn1CC1CC(c2cccc([N+](=O)[O-])c2)=NO1 (centres undefined)
Compound	71	72	73	74	75	76	77	78	79	80	81
Rango-impB inh	-3.9%	0.4%	1.0%	?	-6.6%	-0.7%	?	2.2%	1.5%	-0.9%	-0.3%
miR-21 reporter	-4%	-24%	-7%	-2%	·	3%	·	4%	-9%	·	·
GLA inh pH 4.5	7	-1	4	-4	·	-1	·	3	?	·	·
Rango release inh	-2%	1%	2%	?	12%	21%	-1%	-2%	-6%	1%	-17%

Complete entries from above:
`c1ccc(-c2noc(CN3CCOCC3)n2)cc1` is listed with Rango-impB inh: -0.7%; miR-21 reporter: 2%; GLA inh pH 4.5: 6; Rango release inh: -1%
`CCOc1ccc(Oc2ccccc2NC(=O)CCNC(C)=O)cc1` is listed with Rango-impB inh: -1.4%; miR-21 reporter: 0%; GLA inh pH 4.5: 5; Rango release inh: 0%

Screening data deposited in PubChem BioAssay by National Center for Advancing Translational Sciences (NCATS).
